UCH37 inh: inhibitors of human deubiquitinating enzyme UCH37. Q9Y5K5. purified proteasome/UCH37, Ub-AMC cleavage fluorescence. inhibition, % (test concentration not listed). hit rate 0.33% among 330,000. AID 588478;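 active = mean of two replicates above 20%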;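 also: 0% = compound-free wells with enzyme and 100% = wells lacking proteasome; stock transfer was 100 nL into about 20 µL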
Target sequence (Q9Y5K5 whole entry, looked up): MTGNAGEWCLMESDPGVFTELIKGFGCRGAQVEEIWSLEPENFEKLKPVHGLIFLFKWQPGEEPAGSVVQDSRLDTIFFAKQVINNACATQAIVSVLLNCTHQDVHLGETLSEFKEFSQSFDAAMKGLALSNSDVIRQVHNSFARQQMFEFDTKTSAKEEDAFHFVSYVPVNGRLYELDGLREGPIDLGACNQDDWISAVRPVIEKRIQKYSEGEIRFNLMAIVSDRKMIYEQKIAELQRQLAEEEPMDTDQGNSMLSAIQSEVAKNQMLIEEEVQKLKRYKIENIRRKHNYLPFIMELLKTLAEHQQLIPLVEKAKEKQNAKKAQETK
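Test system – human UCH37 enzyme supplied as purified proteasome complex · Incubation – 30 min preincubation with enzyme, 25 min cleavage at room temperature · Detection – AMC fluorescence from Ub-AMC cleavage, excitation 355 nm, emission 460 nm · Benchmarks – no-proteasome wells (full inhibition) and compound-free wells (no inhibition)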
Vif TR-FRET: inhibitors of Vif binding to APOBEC3G peptide, primary screen, biochemical, TR-FRET, GST-Vif 1-94, biotin-A3G peptide, dose response retest (AID 1117319) | TR-FRET GST-Vif / biotin-A3G peptide binding; higher % means a stronger effect; test concentration not given here; strong numbers were not always called active | hit rate 0.57% among 260,000 | one-dose inhibition, %; IC50 in µM for titrated hits;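 active = above the screen mean plus three standard deviations and confirmed in dose response; inconclusive = results disagree or hit not tested in dose response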;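 also: Vif residues 1-94 fused to GST binding biotinylated APOBEC3G peptide 110-148; 0% = full assay without inhibitor and 100% = GST in place of GST-Vif; retest series ran down from 100 µM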
Beta2AR agonist: agonists of human beta-2 adrenergic receptor inducing internalization; P07550; Am2.2-beta2AR cells, FAP receptor internalization, flow cytometry; reference of the scale not given here; response, % (concentration not given with the values); hit rate 0.43% among 340,000;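 active = response above a set limit, near 3 SD of response in nonfluorescent compounds, cut at about 42% in these data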;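 also: stock transfer was 100 nL into about 11 µL; a reference agonist was the positive control; negative values mostly stem from fluorescent compounds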
Target sequence (P07550 whole entry, looked up): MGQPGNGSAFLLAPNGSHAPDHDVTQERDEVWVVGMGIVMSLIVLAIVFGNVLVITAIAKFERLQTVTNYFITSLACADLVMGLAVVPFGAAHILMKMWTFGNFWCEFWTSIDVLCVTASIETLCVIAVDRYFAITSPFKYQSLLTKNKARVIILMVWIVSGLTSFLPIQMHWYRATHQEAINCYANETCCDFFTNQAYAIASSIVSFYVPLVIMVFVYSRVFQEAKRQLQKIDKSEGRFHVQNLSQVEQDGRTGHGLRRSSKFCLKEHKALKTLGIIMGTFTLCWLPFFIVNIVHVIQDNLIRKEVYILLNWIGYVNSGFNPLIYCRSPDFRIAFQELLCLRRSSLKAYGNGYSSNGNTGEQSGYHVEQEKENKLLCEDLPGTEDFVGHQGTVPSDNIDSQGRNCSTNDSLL
HNF4A DNA FP: change in binding of human HNF4 alpha to DNA. P41235. HNF4a-FITC DNA binding, fluorescence polarization, 1 h. activity change, % at 10 µM. hit rate 0.3% among 360,000. AID 1224865; in the data active = activity change above about 30%, passing the limit was not always enough;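 also: controls were the assay level and a saturating level of protein; the project sought stronger binding though the title names inhibitors; some compounds called inactive have numbers as strong as hits; positive values seem to mean higher polarization but the record does not say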
LANA-H2A inh: blocks KSHV LANA binding to histone H2A/H2B; Q9QR71; cell-free LANA-H2A/H2B peptide, fluorescence polarization; inhibition, % (concentration not given with the values); hit rate 0.6% among 320,000; AID 2629; in the data active = inhibition mostly above about 10%, no sharp cut-off; inactive = mostly below about 6.7%;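 also: stock transfer was 7.5 nL into about 10 µL; 0% = median of vehicle wells and 100% = median of positive control wells; one replicate is shown; the record names a cut of 25% in any replicate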
A1 inh: inhibitors of the anti-apoptotic protein A1, read as caspase activation; MEF A1-2A-BIM cells, Caspase-Glo 3/7 luminescence, 3 h; percent of clofoctol response, vehicle zero; caspase activation, % (concentration not given with the values); hit rate 0.066% among 330,000; AID 2462;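 active = over half of replicate activation scores above 10%, or exactly half above 10 with the replicate mean above 10; inconclusive = replicate mean below 10 yet half the replicates above 10; inactive = over half of replicates below 10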;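 also: wells of about 30 µL received 50 nL stock; many hits fall short of the cut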
Ecoli growth: blocks Escherichia coli growth | OD600, 23 h; hits give low values | OD600 absorbance (no concentration beside the values) | hit rate 0.21% among 330,000;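 active = OD600 absorbance below the run mean of sample wells minus 3.6 SD, in any replicate, cut at about 0.56 in these data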;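 also: stock transfer was 300 nL into about 60 µL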
The depositor's hits bear a star; ? = inconclusive; / = no result given.

SMILES	UCH37 inh	Vif TR-FRET	Beta2AR agonist	HNF4A DNA FP	LANA-H2A inh	A1 inh	Ecoli growth
Cc1nn(-c2ccc(C(=O)N3CCN(S(=O)(=O)c4ccccc4C(F)(F)F)CC3)cc2)c(C)c1Cl	0.5	-10%	-6	3.9	7.3	-0.3	0.65
CCn1cc(C2=NOC(C(=O)Nc3cccc(C(C)=O)c3)C2)c(C)n1 (stereo not drawn)	0.4	-3%	-6	2.7	-2.3	0.3	0.63
Cc1ccc(C(=O)Nc2c(C)cc(-c3ccc(Cl)cc3)oc2=O)cc1	-3.1	?	6	-3.6	3.0	0.3	0.78
COc1cc(OC)c(C(=O)NCc2ccc3c(c2)OCO3)cc1OC	/	3%	2	-5.0	1.4	-0.1	/
C/C(=N\NC(=O)c1cc(C)nc2ccccc12)c1ccc([N+](=O)[O-])cc1	/	3%	-2	-0.8	4.1	0.8	/
O=c1oc(CCO)cc2ccccc12	4.6	/	0	-2.0	3.6	0.1	0.69
CCOC(=O)CNC(=O)CSc1nc2ncc(Br)cc2[nH]1	1.9	5%	16	1.1	3.7	1.0	0.71
CCCCn1c(N)c(N(Cc2ccccc2OC)C(=O)c2cc(CC)c(C)s2)c(=O)[nH]c1=O	0.7	4%	6	1.4	-0.2	0.3	0.62
O=C(CN1Cc2ccccc2C1=O)Nc1ccc2c(c1)OCCO2	-3.5	0%	9	1.9	-1.6	0.5	0.64
Cc1cc(N2CCN(C(=O)Nc3ccc(F)cc3F)CC2)c2ccccc2n1	4.8	25%	3	-4.6	-0.4	-0.4	0.69
O=C(CN1C(=O)NC2(CCCC2)C1=O)OCc1ccccc1	2.7	1%	-1	0.2	-6.3	0.8	0.66
Cn1c(=O)oc2cc(S(=O)(=O)N3CCC(C(=O)NCC4COc5ccccc5O4)CC3)ccc21 (stereo not drawn)	7.2	-1%	-14	-4.6	1.6	0.3	0.76
COc1ccc(-c2cc(-c3cccs3)c(C#N)c(SCC(=O)NCc3ccco3)n2)cc1	-39	-14%	-2	-0.3	2.4	-0.2	0.69
O=C(Cn1cnc2c(oc3nc4c(cc32)CCCC4)c1=O)Nc1ccccc1	1.5	/	-2	1.9	4.0	0.2	0.76
COc1ccc(F)c(CN2CCCC(CNS(=O)(=O)c3cccc4cccnc34)C2)c1 (stereo not drawn)	2.7	/	-2	5.2	1.9	1.5	0.66
CC1(C(=O)O)C=CCN1C(=O)c1ccccc1 (stereo not drawn)	-0.5	-5%	-3	-3.0	-3.9	0.7	0.71
Cc1ccc(C(=O)NNC(=O)C2CCCN(c3ncccn3)C2)cc1 (stereo not drawn)	-3.3	?	-3	-4.7	-1.1	0.2	0.72
Cn1c(SCC(=O)c2ccc(F)cc2)ncc(C(=O)Nc2ccccc2)c1=O	-18	-16%	10	-2.1	3.9	1.5	0.7
Cc1ccc(S(=O)(=O)N2CCSC2=Nc2ccccc2)cc1	0.7	/	/	/	-6.9	0.1	0.67
O=C(COC(=O)Cn1cnc2ccccc21)Nc1cccc(S(=O)(=O)N2CCOCC2)c1	4.0	1%	-1	-1.7	1.7	0.4	0.65
COc1ccc(-n2c3c(cc(C(=O)NCc4ccco4)c2=O)C(=O)CC(C)(C)C3)cc1	-5.9	/	1	-3.6	4.0	0.7	0.71
CC(=O)c1c(C)n(-c2ccccc2)c2ccc(O)cc12	4.5	14%	8	-3.2	5.1	1.4	0.72
CCC(C)NS(=O)(=O)c1ccc(OCC(=O)NCc2cccnc2)cc1 (stereo not drawn)	1.1	-5%	1	0.3	3.1	-1.4	0.69
Oc1cccnc1SCc1ccccc1	1.1	/	-3	5.3	5.2	-1.5	0.7
Cc1cc(C)n(C2CC(=O)N(c3ccccc3)C2=O)n1 (stereo not drawn)	2.8	-12%	0	-2.1	-3.1	0.0	0.69

Grouped by structure, those above with an aryl methoxy group (five)
SMILES	UCH37 inh	Vif TR-FRET	Beta2AR agonist	HNF4A DNA FP	LANA-H2A inh	A1 inh	Ecoli growth
COc1cc(OC)c(C(=O)NCc2ccc3c(c2)OCO3)cc1OC	/	3%	2	-5.0	1.4	-0.1	/
CCCCn1c(N)c(N(Cc2ccccc2OC)C(=O)c2cc(CC)c(C)s2)c(=O)[nH]c1=O	0.7	4%	6	1.4	-0.2	0.3	0.62
COc1ccc(-c2cc(-c3cccs3)c(C#N)c(SCC(=O)NCc3ccco3)n2)cc1	-39	-14%	-2	-0.3	2.4	-0.2	0.69
COc1ccc(F)c(CN2CCCC(CNS(=O)(=O)c3cccc4cccnc34)C2)c1 (stereo not drawn)	2.7	/	-2	5.2	1.9	1.5	0.66
COc1ccc(-n2c3c(cc(C(=O)NCc4ccco4)c2=O)C(=O)CC(C)(C)C3)cc1	-5.9	/	1	-3.6	4.0	0.7	0.71

(further entries)
SMILES	UCH37 inh	Vif TR-FRET	Beta2AR agonist	HNF4A DNA FP	LANA-H2A inh	A1 inh	Ecoli growth
O=C(N/N=C/c1ccc(Sc2nc3ccccc3[nH]2)o1)c1ccncc1	/	15%	-1	4.3	-2.7	1.2	/
CCOC(=O)C1(Cc2ccc(OC)cc2)CCN(C(=O)CN2CCN(CC)CC2)CC1	2.9	7%	-2	2.4	0.9	-0.2	0.67
CC(C)(C)NC(=O)C(c1ccc(O)cc1)N(C(=O)CCC(=O)Nc1nccs1)c1ccc(F)cc1 (stereo not drawn)	1.5	-7%	-2	2.1	-6.5	-0.3	0.67
Cc1cc(C(=O)CSc2nncs2)c(C)n1-c1c(C)n(C)n(-c2ccccc2)c1=O	4.6	-3%	13	1.9	-0.5	0.8	0.69
N#Cc1c(NC(=O)CSc2nnnn2C2CCCC2)sc2c1CCCC2	4.3	13%	-9	4.8	-2.3	0.0	0.71
CC(=O)CSc1nc(N)c(C#N)c(-c2cccs2)c1C#N	-0.9	-49%	7	-2.4	-4.6	0.7	0.66
O=C(CCS(=O)(=O)c1ccc(Cl)cc1)N1CCN(c2ccc(F)cc2)CC1	-0.2	-5%	-7	-2.2	/	0.4	0.65
O=C(N/N=C\c1ccc(Cl)cc1)C1=NOC2COC3(CCN(c4ccc([N+](=O)[O-])cc4)CC3)OCC12 (stereo not drawn)	/	66%	-13	7.1	3.1	-0.6	/
CN(Cc1ccccc1)C(=O)COC(=O)c1ccc(Cl)cc1N	-64	-2%	-5	-3.0	2.4	0.4	0.68
COCc1c(C(=O)OCC(=O)Nc2ccc(OC(F)F)cc2)oc2ccccc12	-0.7	23%	-5	-4.4	-1.7	-0.7	0.69
CCC(C)CCN1CCN=C1N(C)C (stereo not drawn)	2.9	/	-2	3.7	-2.0	-0.6	0.68
O=C(Cc1ccc(Br)cc1)N1CCc2ccccc2C1	-2.9	/	-8	-0.7	0.8	0.9	0.68
CC1CN(CC(=O)Nc2ccc(S(N)(=O)=O)cc2)CC(C)O1 (stereo not drawn)	1.1	-7%	-3	0.6	5.0	0.4	0.65
N#CCc1c(C#N)c(N)nc(N2CCCC(O)C2)c1C#N (stereo not drawn)	4.7	20%	1	-1.3	-2.6	0.6	0.71
CCNC(=O)NC(=O)C(C)OC(=O)c1oc2ccc(OC)cc2c1C (stereo not drawn)	-22	-7%	0	1.1	3.9	1.3	0.69
CC(=O)N1N=C(c2ccncc2)OC1(Cc1ccccc1)Cc1ccccc1	-92	13%	-1	-1.8	-1.5	0.3	0.67
CN(CCc1ccccn1)C(=S)NC(=O)c1ccco1	2.9	3%	1	1.5	-1.2	0.6	0.63
CCOC(=O)N1CCc2c(sc3nc4n(c(=O)c23)N=C(c2ccc(OC)cc2)CS4)C1	/	-12%	2	1.3	-0.6	-0.3	/
O=C(COC(=O)CCNS(=O)(=O)c1ccccc1)NC(=O)c1ccccc1	2.4	3%	-3	4.3	-2.0	-0.2	0.62
O=C(Nc1cc(S(=O)(=O)N2CCOCC2)ccc1N1CCCC1)c1cccnc1Cl	4.5	-7%	4	1.7	5.8	-0.1	0.69
Cc1ccccc1NC(=O)Cc1cn(C)c2ccccc12	0.1	3%	4	2.6	-0.3	0.0	0.73
CCn1c(C)c(C(C)=O)c(N2CCCC2)nc1=S	1.8	-1%	4	2.7	1.6	0.1	0.62
O=C(Nc1ccc(C2SCCS2)cc1)c1ccccc1	-2.7	-12%	/	-6.6	-3.0	-5.4	0.69
COCCNC(=O)c1ccc(Cn2c(=S)[nH]c3cc4c(cc3c2=O)OCO4)cc1	0.5	32%	0	4.0	-0.6	/	0.65
CCOc1ccc(Nc2nc(Cc3nnc(SCC(=O)NCC4CCCO4)n3C)cs2)cc1 (stereo not drawn)	1.7	75%	-7	0.9	6.0	0.4	0.63
Following part:
SMILES	UCH37 inh	Vif TR-FRET	Beta2AR agonist	HNF4A DNA FP	LANA-H2A inh	A1 inh	Ecoli growth
O=c1[nH]c(-c2ccc(Cl)cc2)nc(=S)[nH]1	10	4%	13	4.5	-1.4	1.7	0.68
CCOc1ncccc1C(=O)OCC(=O)c1cccc(Br)c1	1.5	-3%	3	4.4	1.7	0.9	0.68
O=C(O)CCCn1cc(NC(=O)COc2ccccc2F)cn1	4.8	/	0	-0.7	-0.3	-0.9	0.69
CCOC(=O)C1=C(C)NC2=C(C(=O)CCC2)C1c1cn(Cc2ccc(Cl)cc2Cl)nc1-c1ccccc1 (stereo not drawn)	-87	-6%	-23	3.0	4.9	2.2	0.74
O=C(NCCCNC(=O)c1cnccn1)c1ccc(Cl)cc1	1.1	/	0	3.5	3.6	0.2	0.68
COc1ccc(/C(C)=N/Nc2ccccc2Cl)c(O)c1	/	/	20	-7.1	-4.2	-1.1	/
O=C(CNc1cccc(C(F)(F)F)c1)N/N=C/c1cccc(Br)c1	/	/	2	-3.5	-7.9	-0.1	/
COC(=O)c1ccc(NC(=O)CSc2nc3[nH]ncc3c(=O)[nH]2)cc1	5.2	-4%	2	0.8	-4.8	-0.1	0.65
CC1(C)C(Cl)C(=O)C(C(=O)c2ccccc2)C(=O)C1Cl (stereo not drawn)	5.5	/	-1	4.0	-7.6	-0.9	0.72
CC(C)(C)C1CCc2sc(-c3nnc(CCl)o3)cc2C1 (stereo not drawn)	-9.7	-3%	-3	0.0	-2.2	0.5	0.69
Cc1ccc2nc(-c3ccncc3)cc(C(=O)Nc3ccc(F)cc3C)c2c1	-3.1	-3%	12	3.9	-1.5	0.1	0.72
CCn1cc(/C=C2\SC(=O)N(CC(=O)Nc3ccc4c(c3)OCO4)C2=O)c2ccccc21	-0.4	1%	-2	2.3	-1.7	0.5	/
Cc1ccsc1/C=N/NC(=O)Nc1ccccc1	/	4%	-8	6.7	4.2	-2.1	/
O=C(O)[C@@H]1CCCN1c1ncnc2sc3c(c12)CCC3	4.9	2%	3	3.7	2.5	0.2	0.78
C=CCN(CC=C)C(=O)C[n+]1ccc(C(N)=O)cc1	4.2	-2%	3	-1.0	0.7	0.3	0.69
Clc1cccc(C2=NOC(c3nnc(-c4ccccc4)o3)C2)c1 (stereo not drawn)	-0.6	-10%	-2	3.4	-1.8	0.0	0.67
CCOC(=O)[C@@H]1[C@H]2COc3ccc(Br)cc3[C@H]2N2C(=O)N(c3ccc(F)cc3)C(=O)[C@]12C	3.1	/	7	-2.5	4.9	1.9	/
CCCNC(=O)c1ccc(C2SCC(=O)N2CCc2ccccc2)cc1 (stereo not drawn)	-1.7	-2%	-10	-0.3	1.1	-0.5	0.71
COc1cc(/C=N/NC(=O)c2ccc3c(c2)OCO3)ccc1O	/	/	-11	4.8	-2.4	-0.8	/
CC1=CC2=NC(=O)/C(=C\c3cccn3CCOc3cc(C)ccc3C)C(=N)N2O1	5.7	-2%	-12	2.5	-9.0	-0.6	0.71
